Assay outcomes from PubChem BioAssay.
PABP FP inh – blocks human PABP binding to poly(A) RNA | fluorescence polarization | P11940 | AID 2014 | hit rate 1% among 290,000 | inhibition, % at 35 µM;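 active = 50% or more with normal probe brightness, or confirmed in later tests; inconclusive = above 50% with abnormal brightness, or retests that disagree; inactive = below 50% or failed in later tests; about a fifth of its hits are not listed in these tables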;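 note: calls also rest on retests at 20 µM and on dose response follow-up; controls were probe without protein and protein plus probe with vehicle; some compounds called inactive have numbers as strong as hits; many hits fall short of the cut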
Target sequence (P11940 whole entry, looked up): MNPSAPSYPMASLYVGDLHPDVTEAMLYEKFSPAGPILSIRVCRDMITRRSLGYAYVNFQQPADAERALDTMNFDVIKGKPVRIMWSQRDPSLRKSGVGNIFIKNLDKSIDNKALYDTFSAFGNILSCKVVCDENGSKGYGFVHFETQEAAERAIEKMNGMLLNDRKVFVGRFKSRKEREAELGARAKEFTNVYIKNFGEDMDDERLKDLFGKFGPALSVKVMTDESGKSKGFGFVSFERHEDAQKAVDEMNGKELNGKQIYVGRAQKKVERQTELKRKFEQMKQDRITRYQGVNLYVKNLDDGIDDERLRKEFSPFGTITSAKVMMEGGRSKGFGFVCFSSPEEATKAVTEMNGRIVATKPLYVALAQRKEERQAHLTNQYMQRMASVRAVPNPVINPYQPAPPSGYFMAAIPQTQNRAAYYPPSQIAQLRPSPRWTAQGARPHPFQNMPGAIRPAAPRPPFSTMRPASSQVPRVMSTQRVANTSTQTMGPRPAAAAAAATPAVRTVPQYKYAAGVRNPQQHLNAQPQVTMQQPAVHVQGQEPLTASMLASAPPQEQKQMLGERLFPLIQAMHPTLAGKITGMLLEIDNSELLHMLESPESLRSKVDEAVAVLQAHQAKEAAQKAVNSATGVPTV
HIV Env fusion – HIV envelope-mediated fusion inhibition; HeLa-JRFL Env/CEM21 cell fusion, luciferase; inhibition, % at 12.3 µM; hit rate 1.1% among 360,000;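 active = mean replicate inhibition score of at least 50 and every replicate individually at or above 50; inconclusive = only one of the two criteria met; inactive = mean below 50 and not all replicates reaching 50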;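 note: 0% = plate neutral controls and 100% = maraviroc near 300 nM; one replicate is shown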
Rce1 inhib – yeast Ras-converting enzyme inhibition; yeast membranes, quenched prenylated peptide cleavage fluorescence; calls only; hit rate 0.27% among 290,000;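 active = fall in fluorescence gain of 50% or more versus controls, with final raw signal at or below 3038400; inconclusive = same 50% fall but final raw signal above 3038400; inactive = fall in fluorescence gain under 50%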;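 note: plate controls were neutral control wells for no effect and wells lacking membranes for full effect; tested at 10 µM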
MT1-MMP act inh – MT1-MMP (human) activation inhibition. AID 651647. HT1080 RFP-PRO-GFP cells, GFP/RFP ratio fluorescence, overnight; percent of plate control window, DMSO zero. P50281. GFP/RFP ratio change, % at 20 µM. hit rate 0.061% among 360,000;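 active = GFP/RFP ratio change of at least 30% with cell ATP level not reduced by more than half and red fluorescence within 50% of control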; note: strong numbers were not always called active
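Assay system: HT1080 RFP-PRO-GFP cells. Benchmarks: DMSO vehicle wells and RFP-L50D-GFP reporter cell wells. Times: overnight cell settling, then overnight compound exposure, 37 °C, 5% CO2. Compound: 20 µM single dose, 1% DMSO. Read-out basis: GFP/RFP fluorescence ratio.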
UUG fidelity – alters start codon recognition fidelity in yeast; hit rate 0.13% among 350,000; S. cerevisiae UUG-firefly luciferase reporter, luminescence/redox ratio; activity score, % at 18.7 µM;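 active = replicate mean at a twofold rise or more, about +100% in these data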;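 note: firefly luciferase made from a UUG start codon reports start codon fidelity; reporter light over untreated wells divided by growth signal over untreated wells; some hits fall short of that in this replicate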
CSC inhib – cancer stem cell inhibition; cancer stem cell-like cells viability, luminescence; inhibition, % at 7.5 µM; hit rate 1.1% among 300,000;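 active = mean at 75% or more and at least half the replicates too; inconclusive = mean and replicates disagree; tested in HMLE shEcad cells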;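 note: 0% = median of negative and 100% = median of positive control wells; the first replicate is given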
eIF4H inh – inhibitors of RNA binding by human eIF4H; Q15056; eIF4H fluorescence polarization binding assay; inhibition, % at 35 µM; hit rate 0.94% among 290,000;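 active = 50% or more with normal probe brightness, or confirmed in later tests; inconclusive = above 50% with abnormal brightness, or retests that disagree; inactive = below 50% or failed in later tests; about a fifth of its hits are not listed in these tables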;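 note: calls also rest on retests at 20 µM and on dose response follow-up; 0% = protein and probe with vehicle and 100% = probe without protein; strong numbers were not always called active; many hits fall short of the cut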
MT1-MMP act inh RFP – also measured in MT1-MMP act inh; calls as there; RFP signal change, %; measured here: RFP expression control read;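 0 = vehicle wells; hits needed this value within 50% of zero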
An asterisk follows results filed as active; & = joins results of further samples.

CCOc1ccccc1-c1nc(CN2CCN(C(=O)c3ccco3)CC2)c(C)o1 was read as PABP FP inh 4, HIV Env fusion 1, Rce1 inhib inactive, MT1-MMP act inh -1, UUG fidelity -7, CSC inhib -7, eIF4H inh -17 and MT1-MMP act inh RFP 1.
`c1csc(-c2nc(CN3CCSCC3)cs2)c1` gave PABP FP inh -4, HIV Env fusion 7, Rce1 inhib inactive, MT1-MMP act inh -1, UUG fidelity -63, CSC inhib 6, eIF4H inh -4 and MT1-MMP act inh RFP 0.
For COC(=O)C1CCN(c2ccc(Cl)nn2)CC1 the results were PABP FP inh 8, HIV Env fusion -7, Rce1 inhib inactive, MT1-MMP act inh -3, CSC inhib -2, eIF4H inh -10 and MT1-MMP act inh RFP -1.
`Cc1ccc2c(C(=O)CN3CC(C)CC(C)C3)c(C)[nH]c2c1` (centres undefined) gave PABP FP inh 9, HIV Env fusion 7, Rce1 inhib inactive, MT1-MMP act inh -8, UUG fidelity -16, CSC inhib 1, eIF4H inh 1 and MT1-MMP act inh RFP -5.
For COc1ccc(S(=O)(=O)Nc2c(F)cccc2F)cc1 the results were PABP FP inh 2, HIV Env fusion 4, Rce1 inhib inactive, MT1-MMP act inh 1, UUG fidelity 9, eIF4H inh -4 and MT1-MMP act inh RFP 4.
`C[C@@H]1CN([C@@H](C)CO)C(=O)CCCn2nncc2CO[C@H]1CN(C)S(=O)(=O)c1cccc(C#N)c1` gave HIV Env fusion -17, MT1-MMP act inh 1, UUG fidelity -2&-7 and MT1-MMP act inh RFP 4.
For Cc1ccc(C(=O)NCCCN2CCOCC2)cc1S(=O)(=O)N1CCOCC1 the results were MT1-MMP act inh -4, UUG fidelity -7, CSC inhib 23 and MT1-MMP act inh RFP -1.
For COc1ccccc1/C=C/C(=O)OCC(=O)Nc1ccccc1Sc1ccccc1 the results were PABP FP inh 6, HIV Env fusion -7, Rce1 inhib inactive, MT1-MMP act inh 0, CSC inhib -4, eIF4H inh 8 and MT1-MMP act inh RFP -2.
COc1cc(O)c(C(=O)CC(=O)c2ccncc2)c(OC)c1 was read as HIV Env fusion -19, MT1-MMP act inh 0, UUG fidelity -23 and MT1-MMP act inh RFP 1.
For C/C(N)=C(/C#N)C(=O)COC(=O)COc1ccc(Cl)cc1 the results were PABP FP inh 2, HIV Env fusion -4&-6, Rce1 inhib inactive, MT1-MMP act inh 3&3, CSC inhib 8, eIF4H inh 10 and MT1-MMP act inh RFP 9&13.
COc1cccc(NC(=O)N2CCOCC2)c1 was read as PABP FP inh -10, Rce1 inhib inactive, MT1-MMP act inh 14, UUG fidelity -17, CSC inhib -2, eIF4H inh -3 and MT1-MMP act inh RFP -5.
`Cc1cccc2[nH]c(CN(C)C(=O)C3CCC(=O)N(C4CC4)C3)nc12` (centres undefined) gave PABP FP inh -1, HIV Env fusion 3, Rce1 inhib inactive, MT1-MMP act inh 1, UUG fidelity -10, CSC inhib -11, eIF4H inh -4 and MT1-MMP act inh RFP 7.
Screening COc1cccc(/C=N/NC(=S)NCCc2ccccc2)c1OC returned PABP FP inh -9, HIV Env fusion 25, Rce1 inhib inactive, MT1-MMP act inh 0, UUG fidelity -20, CSC inhib -2, eIF4H inh 13 and MT1-MMP act inh RFP 1.
`O=C(COC(=O)c1cccnc1)Nc1ccc2c(c1)OCO2` gave PABP FP inh 3, HIV Env fusion 24, Rce1 inhib inactive, MT1-MMP act inh 5, CSC inhib -15, eIF4H inh -5 and MT1-MMP act inh RFP 3.
COc1ccc(CCNC(=O)/C(C#N)=C2\N=C(NC(=O)c3cccs3)c3ccccc32)cc1 was read as PABP FP inh -2, HIV Env fusion -7, Rce1 inhib inactive, MT1-MMP act inh -2, CSC inhib 10, eIF4H inh 1 and MT1-MMP act inh RFP 0.
`CCOC(=O)C(Nc1ccc2ccccc2c1)C(=O)OCC` gave PABP FP inh -3, HIV Env fusion -130, Rce1 inhib inactive, MT1-MMP act inh 5, CSC inhib -1, eIF4H inh 1 and MT1-MMP act inh RFP 6.
FC(F)Oc1ccc(NC(=S)N2CCN(Cc3ccccc3)CC2)cc1 was read as PABP FP inh -9, HIV Env fusion 30, Rce1 inhib inactive, MT1-MMP act inh 2, CSC inhib 4, eIF4H inh -6 and MT1-MMP act inh RFP 1.
For COc1cc(C2C(C(=O)c3ccc(C)o3)=C(O)C(=O)N2CCCn2ccnc2)cc(OC)c1OC (centres undefined) the results were PABP FP inh -6, Rce1 inhib inactive, MT1-MMP act inh -2, UUG fidelity -32, CSC inhib -2, eIF4H inh 2 and MT1-MMP act inh RFP 2.
`CCC(C)C(NC(=O)C1CCC(C)CC1)C(=O)NCc1cccnc1` (centres undefined) gave PABP FP inh 11, HIV Env fusion -16, Rce1 inhib inactive, MT1-MMP act inh -1, UUG fidelity -17, eIF4H inh 8 and MT1-MMP act inh RFP 1.
CCN(CC(=O)Nc1c(F)cccc1F)C(=O)C1CCCN(C(=O)c2ccc(Cl)cc2)C1 (centres undefined) was read as PABP FP inh 27, HIV Env fusion 4, Rce1 inhib inactive, MT1-MMP act inh -3, UUG fidelity 3, CSC inhib -5, eIF4H inh 16 and MT1-MMP act inh RFP 3.
Screening CC(OC(=O)CCC(=O)c1ccc(F)cc1)C(=O)NC1CCCCC1C (centres undefined) returned PABP FP inh 13, HIV Env fusion 4, Rce1 inhib inactive, MT1-MMP act inh 0, UUG fidelity -9, CSC inhib -15, eIF4H inh 5 and MT1-MMP act inh RFP -2.
Screening Cc1cc(NCCO)c2cc(O)ccc2n1 returned PABP FP inh -5, HIV Env fusion -21, Rce1 inhib inactive, MT1-MMP act inh 6, UUG fidelity -7, CSC inhib -11, eIF4H inh -13 and MT1-MMP act inh RFP 0.
For Clc1ccc(Oc2cnns2)cc1Cl the results were PABP FP inh 0, Rce1 inhib inactive, MT1-MMP act inh -6, UUG fidelity 3, CSC inhib 4, eIF4H inh 1 and MT1-MMP act inh RFP 4.
Screening CCc1nnc(NC(=O)c2ccc3c(c2)C(=O)N(C(C)(C)C)C3=O)s1 returned PABP FP inh -9, HIV Env fusion -76, Rce1 inhib inactive, MT1-MMP act inh 5, UUG fidelity -22, eIF4H inh -4 and MT1-MMP act inh RFP -2.
Screening CCCc1cc(=O)[nH]c(SCC(=O)Nc2sccc2C#N)n1 returned HIV Env fusion 4, MT1-MMP act inh 1, UUG fidelity -23 and MT1-MMP act inh RFP 6.
Screening Cc1cccc(N=C2NN=C(c3c[nH]c4ccccc34)CS2)c1 returned PABP FP inh 13, HIV Env fusion 11, Rce1 inhib inactive, MT1-MMP act inh 0, CSC inhib 80*, eIF4H inh -2 and MT1-MMP act inh RFP 3.
CCCCNC(=O)C1(C)CCN1C(=O)c1cc(F)ccc1C (centres undefined) was read as HIV Env fusion 9, MT1-MMP act inh 1, UUG fidelity -8 and MT1-MMP act inh RFP 0.
Cc1ccc(C(=O)NCC(=O)NCc2ccccc2F)s1 was read as MT1-MMP act inh 4, UUG fidelity -10, CSC inhib 2 and MT1-MMP act inh RFP 2.
`CCOC(=O)[C@H]1[C@H]2COc3cc(OC)ccc3[C@@H]2N2C(=O)N(c3ccc(Cl)cc3)C(=O)[C@@]12C` gave PABP FP inh -14, Rce1 inhib inactive, MT1-MMP act inh 0, UUG fidelity -5, CSC inhib 0, eIF4H inh -7 and MT1-MMP act inh RFP -1.
CCC1Sc2ccc(S(=O)(=O)CCC(=O)NC3CCCCCC3)cc2NC1=O (centres undefined) was read as HIV Env fusion 6, Rce1 inhib inactive, MT1-MMP act inh 1, UUG fidelity -12, CSC inhib -29 and MT1-MMP act inh RFP -9.
`O=C(CNC(=O)c1ccccc1)OCN1C(=O)c2ccccc2C1=O` gave HIV Env fusion -9, MT1-MMP act inh 4, UUG fidelity -7 and MT1-MMP act inh RFP 3.
For O=C1CCC([N+](=O)[O-])C(c2ccc(F)c(Br)c2)N1 (centres undefined) the results were PABP FP inh -1, HIV Env fusion 3, Rce1 inhib inactive, MT1-MMP act inh 2, UUG fidelity -25, CSC inhib -13, eIF4H inh 3 and MT1-MMP act inh RFP -1.
`CCCC(=O)Nc1nnc(SCC(=O)NCc2ccc3c(c2)OCO3)s1` gave PABP FP inh 42, HIV Env fusion 13, Rce1 inhib inactive, MT1-MMP act inh 2, UUG fidelity -13, CSC inhib -8, eIF4H inh -2 and MT1-MMP act inh RFP 1.
Screening COc1ccc(Br)cc1CNC(=O)C1CCN(S(=O)(=O)N2CCCC2)CC1 returned PABP FP inh -1, Rce1 inhib inactive, MT1-MMP act inh 8, UUG fidelity -26, CSC inhib -22, eIF4H inh -3 and MT1-MMP act inh RFP -3.
`CCCCOCCCNC(=O)N[C@H](C(=O)OC)C(C)CC` (some centres undefined) gave PABP FP inh 4, HIV Env fusion -14, Rce1 inhib inactive, MT1-MMP act inh -3, UUG fidelity -4, CSC inhib -10, eIF4H inh -2 and MT1-MMP act inh RFP 5.
For NC(=O)C1CCN(C2CC(=O)N(c3cccc(F)c3)C2=O)CC1 (centres undefined) the results were PABP FP inh -3, Rce1 inhib inactive, MT1-MMP act inh 3, UUG fidelity -24, CSC inhib -3, eIF4H inh 1 and MT1-MMP act inh RFP 2.
`O=c1[nH]c2ccccc2nc1C(F)(F)C(F)F` gave PABP FP inh 4, Rce1 inhib inactive, MT1-MMP act inh 5, UUG fidelity -4, CSC inhib -15, eIF4H inh -2 and MT1-MMP act inh RFP 4.
`Cn1sccc1=O` gave HIV Env fusion 32, MT1-MMP act inh 5, UUG fidelity -20, CSC inhib -6 and MT1-MMP act inh RFP 6.
Screening O=C(Cn1c(NCCCO)nc2ccccc21)c1ccc(Cl)cc1Cl returned PABP FP inh -15, HIV Env fusion 14, Rce1 inhib inactive, MT1-MMP act inh -1, UUG fidelity -9, CSC inhib 12, eIF4H inh 8 and MT1-MMP act inh RFP 0.
COC(=O)c1ccc(NC(=O)CSc2nnc(-c3ccccc3)n2C)cc1 was read as PABP FP inh -10, Rce1 inhib inactive, MT1-MMP act inh 2, UUG fidelity -9, CSC inhib -9, eIF4H inh 6 and MT1-MMP act inh RFP 2.
Cc1cc(C)nc(/N=C(\N)Nc2cccc([N+](=O)[O-])c2)n1 was read as PABP FP inh 1, HIV Env fusion -4, Rce1 inhib inactive, MT1-MMP act inh -6, UUG fidelity 3, CSC inhib 4, eIF4H inh -4 and MT1-MMP act inh RFP -3.
COC(=O)c1c(O)cc(C(C)(C)C)n(-c2ccccc2)c1=O was read as PABP FP inh -6, HIV Env fusion 27, Rce1 inhib inactive, MT1-MMP act inh 0, UUG fidelity 6, CSC inhib -2, eIF4H inh -3 and MT1-MMP act inh RFP 2.
Cc1ccccc1S(=O)(=O)Nc1ncnc2scc(-c3ccccc3)c12 was read as PABP FP inh 6, HIV Env fusion -21, Rce1 inhib inactive, MT1-MMP act inh 6, UUG fidelity 5, CSC inhib 11, eIF4H inh -1 and MT1-MMP act inh RFP 4.
`Cc1ccc(C2CC(C(F)(F)F)n3nc(C(=O)Nc4c(C)n(C)n(-c5ccccc5)c4=O)cc3N2)cc1` (centres undefined) gave PABP FP inh inconclusive, HIV Env fusion 15, Rce1 inhib inactive, MT1-MMP act inh 3, CSC inhib -18, eIF4H inh -24 and MT1-MMP act inh RFP -1.
